Compound activity as filed in PubChem.
Anthrax LT inh = blocks cellular internalization of anthrax lethal toxin; Cells, anthrax lethal toxin internalization, FRET ratio (460/530); Potency, µM (titrated, usually from 40 µM), for the others: at the highest dose activity change, negative = inhibition, hits mostly inhibitors; 70,000 compounds, 0.67% hits; AID 912; active = well fitted falling ratio curve with the 530 nm signal flat; inconclusive = other ratio curves, or a change in one channel alone; inactive = flat curves in the ratio and both channels; the % refers to the ratio; note: % is set by controls: 0 for no effect and ±100 for the full control effect; nearly all actives have a fitted effect of over 50% in size; tested in ME-180 cells; beta-lactamase reporter
SmPrx2 inh = inhibitors of Schistosoma mansoni peroxiredoxin 2; S. mansoni Prx2 activity coupled to TGR/GSH (TGR is thioredoxin glutathione reductase), NADPH fluorescence loss, qHTS; some inactives read as strong as hits; Potency, µM; 65,000 compounds, 0.07% hits; AID 448; active means full or partial inhibition curve with a strong effect at the top dose; inconclusive means weaker partial or single-point curve; inactive means no accepted curve; note: series up to 57 µM; many of its hits are not listed in these tables
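Coupled assay in which S. mansoni TGR passes NADPH reducing equivalents via glutathione to Prx2, which reduces H2O2. Compounds were preincubated 15 min at room temperature with 25 nM TGR/50 nM Prx2 mix. Kinetic NADPH fluorescence loss (ex 365/em 450 nm) was monitored.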
An asterisk follows results filed as active; ? = inconclusive; nt = not tested or not shown; & = joins results of further samples; [ ] = another dose, or the depositor's remark. Potency is the fitted concentration of half-maximal effect. Some of the compounds tested; rates above refer to the full screens.

Fields: Anthrax LT inh, SmPrx2 inh
CCOC(=O)N1CCN(c2c(N3CCc4ccccc4C3)c(=O)c2=O)CC1
→ 1%, >57
COc1cccc(C(=O)CSc2nnc(COc3cccc4cccnc34)o2)c1
→ -13%, >57
COc1cccc(-n2nnc3c(=O)n(Cc4ccc(Cl)cc4)cnc32)c1
→ nt, >57
Nc1ccc2oc(-c3cccs3)nc2c1
→ -13%, >57
CC(NC(=O)CN1C(=O)COc2ccccc21)c1ccccc1 (stereo not given)
→ 13%, >57
NC(=O)c1ccc(Br)c(S(=O)(=O)N2CCCCC2)c1
→ 1%, >57
N#Cc1c(-c2ccccc2)cc(C2CC2)nc1N
→ -12%, >57
Nc1nc(SCC(=O)N2CCCC2)[nH]c(=O)c1-c1ccccc1
→ -14%, >57
Cc1ccc(-n2nc3c(c2NC(=O)c2ccc(S(=O)(=O)N4CCOCC4)cc2)CSC3)c(C)c1
→ -9%, >57
CC1CCC2C(=O)OC(CO)CN2C1c1ccc(Br)cc1 (stereo not given)
→ -8%[8 µM], nt
CCCOc1ccc(C(C)(O)CN2CCOCC2)cc1 (stereo not given)
→ -3%, >57
CC1(C)CC(CCNC(=O)c2ccco2)CC(C)(C)N1
→ -3%, >57
CN1CCc2cc3c(cc2[C@@H]1[C@@H]1C(=O)Oc2c1ccc1c2OCO1)OCO3
→ ?, >57
CC1CCN(CCCNC(=O)COc2cc(=O)n(C)c3ccccc23)CC1
→ 5%, >57
O=C(NC1CC2CCC1C2)C1CCN(S(=O)(=O)c2ccc(-c3nn[nH]n3)cc2)CC1 (stereo not given)
→ -8%, >57
CC(C)CCn1nnnc1C(c1ccc(F)cc1)N1CCC(C(N)=O)CC1 (stereo not given)
→ -18%, >57
CN1/C(=C\C(=O)c2ccco2)c2ccccc2CC1(C)C
→ -13%, >57
Cc1oc(-c2cccc(Cl)c2)nc1CN1CCC(C(=O)N2CCN(c3ccccc3F)CC2)CC1
→ ?, >57
CCN(CC)CCCNC(=O)C1c2ccccc2Oc2ccccc21
→ -15%, >57
O=C(Cn1cc(C(F)(F)F)ccc1=O)N1CCN(S(=O)(=O)c2ccc(Cl)cc2)CC1
→ -12%, >57

6 structures already listed, ordered by heavy-atom count, high to low:
Fields: Anthrax LT inh, SmPrx2 inh
Cc1oc(-c2cccc(Cl)c2)nc1CN1CCC(C(=O)N2CCN(c3ccccc3F)CC2)CC1
→ ?, >57
O=C(Cn1cc(C(F)(F)F)ccc1=O)N1CCN(S(=O)(=O)c2ccc(Cl)cc2)CC1
→ -12%, >57
CC1CCN(CCCNC(=O)COc2cc(=O)n(C)c3ccccc23)CC1
→ 5%, >57
CCN(CC)CCCNC(=O)C1c2ccccc2Oc2ccccc21
→ -15%, >57
CN1/C(=C\C(=O)c2ccco2)c2ccccc2CC1(C)C
→ -13%, >57
CC1(C)CC(CCNC(=O)c2ccco2)CC(C)(C)N1
→ -3%, >57

Other structures
Fields: Anthrax LT inh, SmPrx2 inh
COC(=O)c1ccccc1NC(=O)c1cc2sccc2n1C
→ -8%, >57
CCCCC(CC)COC(=O)CCCCC(=O)OCC(CC)CCCC (stereo not given)
→ 0%, nt
COc1ccc(CNC(=O)c2c(O)c3ccccc3n(C)c2=O)cc1OC
→ 1%, >57
CCOc1ccc2cc(S(=O)(=O)N3CCN(C)CC3)ccc2c1
→ -16%, >57
Clc1ccc2nc(CN3CCCCC3)cn2c1
→ -4%, >57
CN(Cc1nc(-c2cccnc2)no1)S(=O)(=O)c1ccc(Br)cc1
→ ?, >57
COc1ccccc1CC(=O)NCc1ccc2c(c1)OCO2
→ -1%, >57
COC(C)(C)c1cc(C(C)(C)C)nc(N)n1
→ -12%, >57
O=C(CN1C(=O)C2CCc3[nH]c4ccccc4c3C2C1=O)N1CCCC1 (stereo not given)
→ 27%, >57
CCC1CCCCN1S(=O)(=O)c1ccc(S(=O)(=O)N(Cc2cccs2)C2CC2)cc1 (stereo not given)
→ ?, >57
Cc1cc(=O)n2c3c(sc2n1)C(=O)N(Cc1ccccc1)C3=O
→ -15%, >57
CC(=O)Oc1ccc(N(C(C)=O)S(=O)(=O)c2cccs2)cc1
→ 15%, >57
O=C(c1csnn1)N1CCC[C@@]2(CCN(c3cccc(-c4ccccc4)c3)C2)C1
→ ?, >57
COc1ccc(N2CCN(C(=O)CCCOc3cc(=O)n(C)c4ccccc34)CC2)cc1
→ 16%, >57
Cc1cccc(CNc2nc(-c3ccoc3)nc3ccccc23)c1
→ -8%, >57
CCOC(=O)C1=C[C@@]2(CC)CCCN3CCc4c(n1c1ccccc41)[C@H]32
→ ?, >57&>57&>57
CCCn1c(=O)c(C(=O)Nc2ccncc2)c(O)c2ccccc21
→ -3%, >57
CCC(=O)Nc1ccc2oc(-c3cccc(C)c3)nc2c1
→ 11%, >57
CCOC(=O)c1ccc(NC(=O)Nc2ccc(OC)c(OC)c2)cc1
→ 0%, >57
COC(=O)NC(/C=C/c1ccccc1)[C@]1(C(C)=O)CCCC1=O (stereo not given in full)
→ 0%[8 µM], nt
O=C(NCC1CCCO1)C1CCC(N2C(=O)c3ccccc3C2=O)CC1 (stereo not given)
→ -7%, nt
Nc1ncnc2c1ncn2C1CCCC1
→ -3%, >57
NC(CSC12CC3CC(CC(C3)C1)C2)C(=O)O (stereo not given)
→ -7%, >57
CCOC(=O)C1CCCN(C(=O)c2cn(CC(C)C)c(=O)c3cc(OC)c(OC)cc23)C1 (stereo not given)
→ ?, >57
O=C(c1cn(-c2ccccc2)nc1-c1ccncc1)n1nnc2ccccc21
→ 5%, >57
CCN1c2ccccc2-c2nc3ccccc3n2C1c1ccncc1 (stereo not given)
→ nt, >57
c1ccc2c(c1)oc1c(NCCCn3ccnc3)ncnc12
→ 15%, >57
CCCn1c(SCC(=O)NC(=O)Nc2ccc(C)cc2C)n[nH]c1=O
→ 1%, >57
COCCNc1ncnc2ccc(-c3ccc(C(=O)N(C)C)cc3)cc12
→ 6%, >57
C[C@H](CO)NC(=O)[C@H]1C[C@@H]1[C@H](NP(=O)(c1ccccc1)c1ccccc1)c1ccccc1
→ 2%, >57
COCCNC(=O)Cn1cc2c(n1)CCCCC2
→ 6%, >57
CC1=C/C(=C/N(C)c2ccccc2)C(=O)S1
→ ?, >57
COc1ccc(S(=O)(=O)Cc2ccc(C(=O)N3CCN(c4cccc(C)c4)C(C)C3)o2)cc1 (stereo not given)
→ ?, >57
CCC(Sc1nnnn1C)C(=O)Nc1ccc(C(C)=O)cc1 (stereo not given)
→ 0%, >57
C/C=C/c1ccc(OCCCCn2cncn2)c(OC)c1
→ 3%, >57
COc1ccc(OCC(=O)Nc2cccc3ncccc23)cc1
→ -4%, nt
O=[N+]1C2=C(CCCC2)N([O-])C12CCCC2
→ -2%, >57
COC(=O)C(Cc1ccc(O)cc1)NC(=O)c1ccccc1OC (stereo not given)
→ ?, >57
CCCN1CCN(C(=O)Cn2cccc2C(=O)c2ccccc2)CC1
→ -12%, >57
CC(C)CCNC(=O)C(c1ccco1)N(Cc1ccccc1)C(=O)c1snc(C(N)=O)c1N (stereo not given)
→ -22%, >57

Some of the entries so far, bar-delimited.
canonical_smiles | Anthrax LT inh | SmPrx2 inh
CCC(Sc1nnnn1C)C(=O)Nc1ccc(C(C)=O)cc1 (stereo not given) | 0% | >57
C/C=C/c1ccc(OCCCCn2cncn2)c(OC)c1 | 3% | >57

Next part:
Fields: Anthrax LT inh, SmPrx2 inh
CCOC(=O)N1CCC(NC(=O)CCc2nc(-c3ccccc3F)no2)CC1
→ 6%, >57
CCOC(=O)c1sc(NC(=O)CSc2nnc(C)s2)c(C(=O)OCC)c1C
→ 0%, >57
CC(=O)OC[C@H]1O[C@@H](O/N=C\[C@@H](C)[C@H](OCc2ccccc2)C(C)C)[C@H](OC(C)=O)[C@@H](OC(C)=O)[C@H]1OC(C)=O
→ 3%[0.064 µM], nt
Cn1c(SCC(N)=O)nnc1C1CCN(S(=O)(=O)c2ccccc2C(F)(F)F)CC1
→ ?, >57
O=C(C1CC1)N1CCN=C1SCc1ccc(F)cc1
→ 19%, >57
COc1ccc(CCN(C)Cc2ccncc2)cc1OC
→ 4%, >57
Cc1nnc(N2C(=O)c3oc4ccccc4c(=O)c3C2c2ccco2)s1 (stereo not given)
→ 10%, >57
CC1CCCCN1C(=O)CSc1nc(-c2ccccc2)cc(=O)[nH]1 (stereo not given)
→ 13%, >57
O=C(CCNS(=O)(=O)c1ccc(Cl)cc1)NCc1cccnc1
→ ?, >57
Cn1c(SCc2ccccn2)nnc1-c1cnccn1
→ ?, >57
CCOC(=O)N1CCN(C(=O)CCSc2ccc(C)cc2)CC1
→ -15%, >57
O=[N+]([O-])c1cccc(/C=N\NC2=CS(=O)(=O)C=C2)c1
→ 0%[8 µM], >57
CCN(CC)CCCN1C(=O)C(O)=C(C(=O)c2ccco2)C1c1ccc(OC(C)C)cc1 (stereo not given)
→ -19%, >57
O=S(=O)(c1ccccc1)N1CCC2(CCCN(c3ncccn3)C2)CC1
→ -29%, >57
O=S(=O)(c1ccc(Oc2ccc(Br)cc2)cc1)N1CCOCC1
→ -17%, >57
CCOC(=O)C1CCN(CC(O)COc2ccc(C(C)(C)C)cc2)CC1 (stereo not given)
→ -15%, >57
CCCCOC(=O)C1C2C=C[C@]3(CN(CCCOC)C(=O)[C@H]13)O2 (stereo not given in full)
→ nt, >57
Cc1ccc(-c2cn3cccnc3n2)cc1NC(=O)c1c(-c2ccccc2Cl)noc1C
→ -6%, >57
c1ccc2c(Cn3nnc4ccccc43)cccc2c1
→ -5%, >57
CC1Cc2ccccc2N1C(=O)CSc1nc2c(c(=O)n(C)c(=O)n2C)n1Cc1ccccc1 (stereo not given)
→ -8%, >57
COCc1c(CN)cnc(C)c1N
→ 8%, >57
CCOC(=O)CN(C(=O)c1ccccc1)c1ccccc1C
→ -7%, >57
CCOC(=O)CNC(=O)CSc1nnc(-c2ccccc2)n1Cc1ccco1
→ ?, >57
COC(=O)c1ccc(NC(=O)CN2CCN(c3cccc(Cl)c3)CC2)cc1
→ -11%, nt
O=C(NCCF)[C@H]1C[C@@H]1[C@H](NP(=O)(c1ccccc1)c1ccccc1)c1ccccc1
→ 12%, >57
C/C=C1\CC2C=CC1C2 (stereo not given)
→ -7%, nt
CSc1nnc(Cc2cc(=O)[nH]c(=O)[nH]2)n1-c1cc(C)ccc1C
→ 10%, >57
COc1cc(N=Nc2cccc(S(N)(=O)=O)c2)c2ccccc2c1N
→ 8%[8 µM], >57
Cc1cc(C)nc(N2CCC(C(=O)NCc3cccs3)CC2)n1
→ -2%, >57
O=C(c1cc(S(=O)(=O)N2CCOCC2)c(Cl)cc1Cl)N1CCCCC1
→ 6%, >57
O=C(OC(C(=O)NCC1CCCO1)c1ccccn1)c1cccs1 (stereo not given)
→ 11%, >57
CCn1c(CC(=O)Nc2cccc(OC)c2)nnc1SCC(=O)N1CCN(c2ccccc2)CC1
→ -6%, >57
Clc1ccc(CSc2nncn2-c2ccccn2)cc1
→ 20%, >57
O=C(NCc1ccccn1)c1ccc(Br)s1
→ 14%, >57
CCC/C=C(\CCC)C(NC(=O)c1cccs1)c1ccc(C(=O)OC)cc1 (stereo not given)
→ -9%, >57
CCOC(=O)Cc1csc(NC(=O)CS(=O)(=O)Cc2ccccc2)n1
→ nt, >57
C=CCOC(=O)C(C#N)c1nc2ccccc2nc1N1CCCC1 (stereo not given)
→ 2%, >57
C=CCSc1nc2ccccc2c(=O)n1Cc1ccco1
→ ?, >57
CN(C)c1ccc(-c2cncnc2Nc2ccc(F)cc2)cc1
→ -3%, >57
CN(C)c1ccc(C2(c3ccc(N(C)C)cc3)OC(=O)c3cc(N(C)C)ccc32)cc1
→ ?, nt
CC1CC(C)(C)Nc2ccc(OC(=O)c3ccco3)cc21 (stereo not given)
→ ?, nt
O=C(CCC1N=C2c3ccccc3N=C(SCc3ccc(Cl)cc3)N2C1=O)NCc1ccco1 (stereo not given)
→ 10%, >57
COc1ccc(N(Cc2cc3ccc(C)cc3[nH]c2=O)C(C)=O)cc1
→ 9%, >57
N#Cc1ccccc1Cn1c(=O)n(CCCC(=O)NCc2ccc3c(c2)OCO3)c(=O)c2ccccc21
→ 8%, >57
Cc1cc(C(=O)COc2cccc3cccnc23)c(C)n1C
→ -14%, >57
O=C(Nc1ccc2c(c1)OCO2)c1cnn2c1NC(c1ccco1)CC2C(F)(F)F (stereo not given)
→ -2%, >57
O=C(N/N=C1/C[C@@H](O)[C@@H](O)[C@@H]2[C@H]3C(=O)N(c4ccc(F)cc4F)C(=O)[C@@H]3CC[C@H]12)OCc1ccccc1
→ -10%[8 µM], nt
COC(=O)C1=C(C)N(c2ccc(Cl)c(Cl)c2)C(=O)C1
→ ?, >57
CC(C)c1nnc(NC(=O)CSc2ncn[nH]2)s1
→ 1%, nt
Cc1ccc2cccc(NC(=O)c3ccc(Br)o3)c2n1
→ -17%, >57

Carrying on.
Fields: Anthrax LT inh, SmPrx2 inh
CCC1(C)Cc2nc3sc(C(=O)O)c(N)c3cc2CO1 (stereo not given)
→ 9%, >57
COC(=O)c1c(-c2cccc(C)c2)csc1N
→ -10%, >57
CCOC(=O)N1CCN(c2cc(=O)n(-c3ccccc3Cl)c(=O)[nH]2)CC1
→ -4%, >57
COc1cc(S(=O)(=O)N2CCOCC2)ccc1NC(=O)COC(=O)c1ccccn1
→ 5%, >57
CCn1c(SCC(=O)C(C)(C)C)nnc1-c1ccccc1OC
→ 1%, >57
CN1CCN(C(=O)c2ccc3c(c2)NC(=O)C(C)(C)O3)CC1
→ 1%, >57
